Screening data (PubChem BioAssay)
RE007 growth inh: less growth of the S. pombe RE007 Vpr strain; S. pombe RE007 Vpr strain, BacTiter-Glo ATP luminescence, 24 h; control for the full effect not named in the record; hit rate 0.21% among 360,000; AID 651644; Potency, µM (highest dose often 92.2 µM), inactives show at the top dose activity change, negative = less growth; active = well fitted falling curve with a large enough effect; inconclusive = small, poorly fitted or top-dose-only effect; inactive = no such curve, though single readings can be large or run the other way;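 note: % is set by controls: 0 for no effect and ±100 for the full control effect; nearly all actives have a fitted effect of over 50% in size; the assay follows cell death caused by Vpr and the record does not say whether a fall means rescue or toxicity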
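Fission yeast RE007 carrying one integrated HIV-1 vpr copy, seeded at OD 0.01 in PMG+AL medium with 23 nL pinned compound. Grown 24 h at 30 degrees; viability read by BacTiter-Glo luminescence after 5 min.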
SARS PLP yeast: SARS-CoV PLP inhibition in yeast | hit rate 0.19% among 330,000 | S. cerevisiae expressing SARS-CoV PLpro, growth rescue; control for the full effect not named in the record | Potency, µM (series often up to 32.9 µM), inactives show top-dose activity, positive = growth rescue; note: 0% is about no effect; nearly all actives have a fitted effect of over 55% in size; growth read by luminescence after 48 h
MARV entry inh: Marburg virus entry inhibition; Marburg virus pseudotyped entry inhibition, cell reporter; control for the full effect not named in the record; about a third of the inactives were read at about 46 µM; Potency, µM (series often up to 37.8 µM), for inactives: at the top dose activity change, negative = inhibition, usual class: inhibitors; hit rate 1.8% among 300,000; active = well fitted inhibition curve with a large enough effect; inconclusive = small, poorly fitted or top-dose-only effect, or effect the other way; inactive = flat fitted curve, though single readings scatter; tested in HEK293 cells; about a fifth of its hits are not listed in these tables; note: % is set by controls: 0 for no effect and ±100 for the full control effect; luciferase read-out
NS1 function inh: blocks influenza NS1 protein function; S. cerevisiae slowed by influenza A NS1, growth recovery by OD600; Potency, µM (top dose mostly 46.1 µM), without a hit: at the top dose activity, positive = more growth; hit rate 0.4% among 270,000; AID 2326; note: actives are rising curves; nearly all actives have a fitted effect of over 50% in size
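Growth recovery, yeast-based: influenza A NS1 expressed in S. cerevisiae causes slow growth, and suppressors are detected by OD600. The parent strain without NS1 is used as positive control.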
2A StopGo: lowers the luciferase signal of an FMDV 2A StopGo reporter; hit rate 1.2% among 410,000; Potency, µM (series often up to 57.9 µM), for inactives: at the top dose signal change, negative = less light; human cells with a luciferase reporter of 2A StopGo recoding; control for the full effect not named in the record; active = well fitted falling curve with a large enough effect; inconclusive = small, poorly fitted or top-dose-only effect; inactive = no such curve, though single readings can be large or run the other way; tested in HEK293T cells; note: % is set by controls: 0 for no effect and ±100 for the full control effect; nearly all actives have a fitted effect of over 45% in size; luciferase light after 4 h
Cruzain Triton: cruzain (T. cruzi) inhibition with detergent | P25779 | hit rate 0.43% among 200,000 | Potency, µM, without a hit: max response, negative = inhibition, hits mostly inhibitors | purified cruzain, Z-FR-AMC fluorescence, 0.01% Triton; active = well fitted curve in the direction sought with a large enough effect; inconclusive = small, poorly fitted or top-dose-only effect, or another doubt; inactive = no such curve, though single readings can be large; an effect the other way counts as inactive or inconclusive;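 note: plate controls were neutral wells for no effect and buffer without enzyme for full effect; nearly all actives have a fitted effect of over 40% in size; top concentration of the series not given in the record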
Target sequence (P25779 123-467 limits assumed): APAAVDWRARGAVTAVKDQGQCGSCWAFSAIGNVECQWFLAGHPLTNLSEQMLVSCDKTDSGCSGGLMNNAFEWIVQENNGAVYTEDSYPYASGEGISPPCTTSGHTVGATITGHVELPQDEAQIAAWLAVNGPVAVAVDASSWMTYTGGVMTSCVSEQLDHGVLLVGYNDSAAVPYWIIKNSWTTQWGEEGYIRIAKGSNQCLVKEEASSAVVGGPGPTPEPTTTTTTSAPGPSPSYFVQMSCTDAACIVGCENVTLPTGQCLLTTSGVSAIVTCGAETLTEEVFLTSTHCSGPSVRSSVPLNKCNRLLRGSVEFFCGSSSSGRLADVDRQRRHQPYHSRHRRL
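Detergent-containing run (0.01% Triton X-100) in acetate buffer pH 5.5 with 5 mM DTT: enzyme at 1.5 nM final, 15 min compound preincubation at room temperature, then 2 uM Z-FR-AMC substrate. Activity taken as 60 s fluorescence increase at 360/450 nm.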
Cruzain inh noDet: blocks cruzain activity in detergent-free assay | P25779 | purified cruzain, Z-FR-AMC fluorescence, no detergent | Potency, µM, without a hit: max response, negative = inhibition, hits mostly inhibitors | hit rate 2.3% among 200,000 | AID 1476; active = well fitted curve in the direction sought with a large enough effect; inconclusive = small, poorly fitted or top-dose-only effect, or another doubt; inactive = no such curve, though single readings can be large; an effect the other way counts as inactive or inconclusive;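 note: plate controls were enzyme without inhibitor for no effect and buffer without enzyme for full effect; nearly all actives have a fitted effect of over 40% in size; top concentration of the series not given in the record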
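Detergent-free condition (0.00005% Triton X-100) in acetate buffer pH 5.5 with DTT. 1.5 nM enzyme and compound were pre-mixed 15 min, then 2 uM Z-FR-AMC substrate added; reaction progress from fluorescence change between first and third reads (60 s).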
Lassa entry inh: inhibitors of Lassa virus binding or cell entry; Lassa virus pseudotype entry inhibition, cell reporter; control for the full effect not named in the record; AID 540256; hit rate 1.2% among 300,000; Potency, µM (top dose mostly 37.9 µM), inactives show at the top dose activity change, negative = inhibition, actives largely listed as inhibitors; active means well fitted inhibition curve with a large enough effect; inconclusive means small, poorly fitted or top-dose-only effect, or effect the other way; inactive means flat fitted curve, though single readings scatter; tested in HEK293 cells; note: % is set by controls: 0 for no effect and ±100 for the full control effect; nearly all actives have a fitted effect of over 50% in size; luciferase read-out
* hit, by the source's call; ? = inconclusive; . = no result given; & = joins results of further samples; [ ] = remark or other dose. Unless noted, calls come from the whole dose curve; as a rule, active means well fitted rising curve with a large enough effect; inconclusive means small, poorly fitted or top-dose-only effect; inactive means no such curve, though single readings can be large or run the other way. Potency is the fitted concentration of half-maximal effect. No enrichment for hits; 4.7% or so of the library scored in one or more.

SMILES	RE007 growth inh	SARS PLP yeast	MARV entry inh	NS1 function inh	2A StopGo	Cruzain Triton	Cruzain inh noDet	Lassa entry inh
Nc1nc(Cl)cc(Nc2ccccc2Cl)n1	-6%	4%	.	7%	35%[activator]	.	.	.
CCCCN(CC)C(=O)c1ccc(Cl)cc1	6%	0%	0%[46.1 µM]	2%	-9%	.	.	16%[46.1 µM]
Cc1ccc(S(=O)(=O)N2CCN(C(=O)N3CCOCC3)C2C)cc1 (stereo unspecified)	-13%	-3%	17%	3%	0%	4.2%	-8%	15%
COCCCNc1ncnc2ccc(C)cc12	-11%	0%	-27%	7%	-29%	-1.9%	-3%	-23%
Cc1cc(C)cc(NC(=O)N2CCN(c3cc(-c4noc(C)n4)ccc3C)CC2)c1	.	.	.	.	-22%	-2.8%	16%	-13%[46.1 µM]
CN(C)S(=O)(=O)c1ccc2c(c1)nc1n2CCC1	-1%	2%	11%	2%	-5%	5.8%	-11%	-15%
Cc1ccccc1C(=O)N(Cc1cccs1)C1CCS(=O)(=O)C1 (stereo unspecified)	-1%	0%	-2%[46.1 µM]	-2%	-12%	.	.	?
O=C(Nc1ccccc1F)c1ccc(CSc2ccccc2)o1	-7%	-9%	10%	-51%	65%[activator]	-20%	11%	-18%
CNc1ccc(C2(O)C(=O)c3ccccc3C2=O)cc1	5%	15%	5%	23%	-10%	-2.1%	-5%	2%[46.1 µM]
COC(=O)C1=C(N)c2c(F)cccc2C1(C#N)c1ccccc1 (stereo unspecified)	3%	-1%	-19%	-1%	0%	-5.5%	-14%	0%
COc1ccc(-c2cc(C(=O)N3CCN(c4ncccn4)CC3)c3ccccc3n2)c(OC)c1	?	-77%	?	-57%	-23%	-11%	?	?
O=C(/C=C/c1ccccc1[N+](=O)[O-])NCc1ccccc1Cl	1%	0%	?	.	0%	.	.	-4%[46.1 µM]
COc1ccc(OC)c(NC(=O)Cn2cc(C(=O)c3ccccc3F)c3ccccc32)c1	.	.	?	.	-25%	-6.4%	?	?
COc1cccc(-c2nnc(SCc3ccc(C#N)cc3)n2Cc2ccco2)c1	15%	1%	?	-9%	0%	-7.5%	-3%	-18%
C[C@H]1CC[C@@]2(O[C@@H](CCO)C[C@@H](O)[C@@H]2O)O1	0%	0%	.	0%	-8%	.	.	.
COc1ccc2cc(C#N)c(N3CCOCC3)nc2c1	-2%	15%	-18%	-11%	?	.	.	?
Cc1cccc(Nc2ncnc3onc(-c4cccc(Cl)c4)c23)c1	-5%	12%	.	-14%	?	.	.	.
O=c1[nH]c2cc3c(cc2cc1CN(Cc1nnnn1CC1CCCO1)C1CCCCC1)OCO3 (stereo unspecified)	8%	-3%	15%	-17%	5%	-9.9%	0%	2%
CCOC(=O)c1cc(-c2ccccc2)sc1NC(=O)C(C)N1C(=O)NC(C)(c2ccc(Cl)cc2)C1=O (stereo unspecified)	-10%	-7%	?	18%	-13%	0.2%	4µM*	1%
[O-][n+]1c2c(nn1-c1ccc(Cl)c(Cl)c1)-c1nonc1CC2	-23%	4%	1%[46.1 µM]	.	-16%	.	.	20%[46.1 µM]

Whole records, quoted from the list. Values in the order: RE007 growth inh, SARS PLP yeast, MARV entry inh, NS1 function inh, 2A StopGo, Cruzain Triton, Cruzain inh noDet, Lassa entry inh
Record of `Nc1nc(Cl)cc(Nc2ccccc2Cl)n1` : -6%, 4%, ., 7%, 35%[activator], ., ., .
Record of `[O-][n+]1c2c(nn1-c1ccc(Cl)c(Cl)c1)-c1nonc1CC2` : -23%, 4%, 1%[46.1 µM], ., -16%, ., ., 20%[46.1 µM]

Next compounds
SMILES	RE007 growth inh	SARS PLP yeast	MARV entry inh	NS1 function inh	2A StopGo	Cruzain Triton	Cruzain inh noDet	Lassa entry inh
O=C(CCC1N=C2c3ccccc3N=C(SCc3ccccc3Cl)N2C1=O)NCCc1ccccc1 (stereo unspecified)	.	.	22%[46.1 µM]	.	-9%	-4.6%	?	3%[46.1 µM]
CC1CN(Cc2ccccc2)C(=O)N(c2ccccc2)C1=O (stereo unspecified)	-4%	.	19%	.	-16%	.	.	-24%
CC(=O)Nc1cc(C(C)(C)C)c(O)c(C(C)(C)C)c1	-12%	-11%	1%	1%	-12%	3.5%	7%	-8%
Cc1c(Cl)cccc1-n1ncc(C(=O)Nc2ccc(F)cc2F)c1C1CCN(C(=O)OC(C)(C)C)CC1	.	.	.	.	-18%	-12%	-13%	0%[46.1 µM]
Cc1nn(C)c(=O)n1-c1ccc(Oc2ccccc2)cc1	8%	8%	1%	-1%	4%	3.5%	9%	21%
O=C(COC(=O)c1cccc(NS(=O)(=O)/C=C/c2ccccc2)c1)Nc1ccccc1OC(F)F	-9%	-3%	24%	4%	23%	-3.8%	-29%	-10%
CCCCN(CC)CCCNC(=O)C1CCN(c2nc3ccc(CC)cc3s2)CC1	.	.	?	.	-3%	-7.2%	5%	?
COc1ccc([C@H]2Oc3cc(O)cc(O)c3C(=O)C2[C@@H]2C(=O)c3c(O)cc(O)cc3O[C@@H]2c2ccc(OC)cc2)cc1 (stereo partly specified)	3%	3%	-1%	?	-13%	.	.	.
Cc1ccc(S(=O)(=O)n2c3ccc(Cl)cc3c3nc(C)sc32)cc1	-16%	-25%	?	-13%	-7%	-5.7%	?	-2%
Clc1cc(Cl)c(Cl)cc1Cl	-2%	-3%	.	.	-15%	5.9%	2%	.

Structural class: the compounds so far containing an aryl thioether with sulfur outside any ring
SMILES	RE007 growth inh	SARS PLP yeast	MARV entry inh	NS1 function inh	2A StopGo	Cruzain Triton	Cruzain inh noDet	Lassa entry inh
O=C(Nc1ccccc1F)c1ccc(CSc2ccccc2)o1	-7%	-9%	10%	-51%	65%[activator]	-20%	11%	-18%
COc1cccc(-c2nnc(SCc3ccc(C#N)cc3)n2Cc2ccco2)c1	15%	1%	?	-9%	0%	-7.5%	-3%	-18%

(next part)
SMILES	RE007 growth inh	SARS PLP yeast	MARV entry inh	NS1 function inh	2A StopGo	Cruzain Triton	Cruzain inh noDet	Lassa entry inh
COc1ccccc1OCC(=O)Nc1ccc2c(c1)n(C)c(=O)n2C	-7%	1%	5%[46.1 µM]	.	16%	.	.	15%
CC1(C)CC2(CC(C)(C)NC(=O)N2)NC(=O)N1	-13%	4%	17%	-2%	13%	5.1%	-1%	-1%
CCOC(=O)c1ccccc1NC(=O)C1CCN(c2ncnc3sc(C)c(C)c23)CC1	-10%	.	2%[46.1 µM]	.	?	.	.	-14%
COc1ccc(/C=N/n2cc(-c3ccc(OC)cc3)nc2N)cc1	-27%	-19%	?	2%	.	-8.2%	32µM*	-20%
Cc1cccc(COCC(Cc2ccccc2)N2CCN(C(=O)c3ccc(C(F)(F)F)cc3)CCC2=O)c1 (stereo unspecified)	-13%	-7%	?	20%	-30%	-7.3%	?	?
N#Cc1cc2c(nc1S(=O)(=O)Cc1ccccc1)CCCC2	1%	0%	13%	.	12%	.	.	1%
CCOc1nc2cnccc2n(CC(=O)Nc2cccc(C)c2)c1=O	7%	?	-1%[46.1 µM]	4%	26%	.	.	-24%[46.1 µM]
CCN(C(=O)Cn1nc2c3cc(F)ccc3n(Cc3cccc(C)c3)cc-2c1=O)c1cccc(C)c1	.	.	.	.	-15%	0.4%	-4%	5%[46.1 µM]
O=C(Nc1nc2c(s1)CCCC2)c1ccc2ncsc2c1	-16%	-24%	.	-77%	0%	-12%	-6%	.
Cn1c(SCc2cc(=O)[nH]c3ccccc23)nnc1-c1ccco1	5%	3%	14%	1%	-3%	-0.9%	-1%	4%
Cc1ccc(NC(=O)CN(C)C(=O)CSc2nc3ccccc3c(=O)n2CCO)cc1	-25%	-6%	-13%	.	-7%	.	.	9%
COc1ccccc1CNC(=O)C(C)n1nc(C)c2c(C)n(-c3ccccc3)nc2c1=O (stereo unspecified)	0%	-4%	-12%[46.1 µM]	5%	?	.	.	-25%[46.1 µM]
Cc1cc(C)nc(NC(=O)c2ccc(Cl)cc2)n1	-19%	-2%	-23%[46.1 µM]	.	-1%	.	.	12%[46.1 µM]
O=C(NC(=S)Nc1ccc(S(=O)(=O)Nc2nccs2)cc1)c1ccc(F)c(F)c1	3%	16%	22%	9%	86%[activator]	-6.2%	-7%	-21%
O=C(COC(=O)/C=C/c1ccccc1)Nc1cccc(Oc2ccccc2)c1	0%	-2%	3%	4%	4%	-7.3%	18%	4%
CCCN(C(=O)c1cc2c(s1)-c1ccccc1OC2)c1ccc(C(C)C)cc1	.	.	1%[46.1 µM]	.	?	-5.4%	?	.
CCC1SC2=NC(C)=C(C(=O)OC)C(c3ccc(C)cc3)N2C1=O (stereo unspecified)	0%	-2%	-5%	-5%	0%	-1.3%	-20%	-20%
COc1cccc(C(=O)Nc2c3c(nn2-c2ccc(Cl)cc2)CS(=O)(=O)C3)c1	.	.	.	.	-2%	0.0%	-15%	10%[46.1 µM]
CCOc1cc2[nH]c(=O)n(Cc3ccc(C(=O)N4CCN(c5ccccc5)CC4)cc3)c(=O)c2cc1OCC	.	.	.	.	-13%	1.5%	4%	2%[46.1 µM]
COc1ccc(OCC(=O)Nc2ccc(S(=O)(=O)Nc3cc(C)on3)cc2)cc1	1%	2%	5%[46.1 µM]	.	17%	.	.	-8%
Cc1cccc(N2CCN(c3ccc(C(=O)O)cc3NC(=O)c3ccccc3F)CC2C)c1 (stereo unspecified)	.	.	.	.	-25%	-9.8%	38%	14%[46.1 µM]
COC(=O)c1ccsc1NC(=O)CCc1ccccc1	-1%	-10%	.	-8%	25%	.	.	.
CCCCn1c(N)c(N(C)C(=O)c2cc3c(F)cccc3s2)c(=O)[nH]c1=O	0%	-2%	9%	.	-19%	.	.	9%
Cc1cccc(-n2c(SCC(=O)Nc3ccc(C)c(C)c3)nc3n[nH]c(C)c3c2=N)c1	.	.	.	.	-19%	-8.2%	-1%	-6%[46.1 µM]
CC1(C)Cc2c(c(N3CCOCC3)nc3sc4c(NCc5ccco5)nnnc4c23)CS1	19%	-9%	0%&0%&0%	-5%[9.22 µM]	-21%	-3.4%	-25%	?
